Screening results deposited in PubChem by National Center for Advancing Translational Sciences (NCATS).
NS1 function inh = inhibitors of influenza NS1 protein function; S. cerevisiae slowed by influenza A NS1, growth recovery by OD600; Potency, µM (doses to about 46.1 µM), for inactives: at the top dose activity, positive = more growth; 270,000 tested, 0.4% active; AID 2326; note: actives are rising curves; nearly all actives have a fitted effect of over 50% in size
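In this qHTS, NS1 from influenza A is expressed in budding yeast, where it slows growth. Cells are switched from glucose to 2% galactose medium (pH 6.0, -URA), treated with compound, and growth recovery is read at OD600.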
Cruzain inh noDet = blocks cruzain activity in detergent-free assay. P25779. AID 1476. Potency, µM, for inactives: max response, negative = inhibition, usual class: inhibitors. 200,000 tested, 2.3% active. purified cruzain, Z-FR-AMC fluorescence, no detergent; active = well fitted curve in the direction sought with a large enough effect; inconclusive = small, poorly fitted or top-dose-only effect, or another doubt; inactive = no such curve, though single readings can be large; an effect the other way counts as inactive or inconclusive;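 note: plate controls were enzyme without inhibitor for no effect and buffer without enzyme for full effect; nearly all actives have a fitted effect of over 40% in size; top concentration of the series not given in the record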
Target sequence (P25779 123-467 limits assumed): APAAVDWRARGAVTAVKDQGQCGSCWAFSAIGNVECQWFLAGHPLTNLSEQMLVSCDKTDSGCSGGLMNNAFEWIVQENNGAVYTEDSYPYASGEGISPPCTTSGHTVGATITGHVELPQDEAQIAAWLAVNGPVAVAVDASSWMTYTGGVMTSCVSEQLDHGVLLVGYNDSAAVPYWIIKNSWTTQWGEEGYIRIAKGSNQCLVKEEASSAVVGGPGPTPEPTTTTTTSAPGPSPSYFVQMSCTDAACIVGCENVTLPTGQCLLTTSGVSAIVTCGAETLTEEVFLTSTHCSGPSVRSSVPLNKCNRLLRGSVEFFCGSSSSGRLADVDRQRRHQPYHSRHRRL
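Detergent-free condition (0.00005% Triton X-100) in acetate buffer pH 5.5 with DTT. 1.5 nM enzyme and compound were pre-mixed 15 min, then 2 uM Z-FR-AMC substrate added; reaction progress from fluorescence change between first and third reads (60 s).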
RE007 growth inh = less growth of the S. pombe RE007 Vpr strain; S. pombe RE007 Vpr strain, BacTiter-Glo ATP luminescence, 24 h; control for the full effect not named in the record; 360,000 tested, 0.21% active; Potency, µM (top dose mostly 92.2 µM), for inactives: at the top dose activity change, negative = less growth; active = well fitted falling curve with a large enough effect; inconclusive = small, poorly fitted or top-dose-only effect; inactive = no such curve, though single readings can be large or run the other way;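 note: % is set by controls: 0 for no effect and ±100 for the full control effect; nearly all actives have a fitted effect of over 50% in size; the assay follows cell death caused by Vpr and the record does not say whether a fall means rescue or toxicity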
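Fission yeast RE007 carrying one integrated HIV-1 vpr copy, seeded at OD 0.01 in PMG+AL medium with 23 nL pinned compound. Grown 24 h at 30 degrees; viability read by BacTiter-Glo luminescence after 5 min.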
SARS PLpro yeast = SARS-CoV PLP inhibition in yeast. S. cerevisiae expressing SARS-CoV PLpro, growth rescue; control for the full effect not named in the record. Potency, µM (titrated, usually from 32.9 µM), for inactives: top-dose activity, positive = growth rescue. 330,000 tested, 0.19% active; note: 0% is about no effect; nearly all actives have a fitted effect of over 55% in size; growth read by luminescence after 48 h
Cruzain Triton = cruzain (T. cruzi) inhibition with detergent | Potency, µM, for inactives: max response, negative = inhibition, hits mostly inhibitors | P25779 | AID 1478 | purified cruzain, Z-FR-AMC fluorescence, 0.01% Triton | 200,000 tested, 0.43% active; active = well fitted curve in the direction sought with a large enough effect; inconclusive = small, poorly fitted or top-dose-only effect, or another doubt; inactive = no such curve, though single readings can be large; an effect the other way counts as inactive or inconclusive;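 note: plate controls were neutral wells for no effect and buffer without enzyme for full effect; nearly all actives have a fitted effect of over 40% in size; top concentration of the series not given in the record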
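Cysteine protease activity tested under reducing, mildly acidic conditions (100 mM sodium acetate pH 5.5, 5 mM DTT) plus 0.01% Triton X-100. Cruzain 1.5 nM; substrate Z-FR-AMC 2 uM; 15 min compound preincubation at room temperature.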
StopGo reporter = FMDV 2A StopGo reporter, luciferase signal; human cells with a luciferase reporter of 2A StopGo recoding; control for the full effect not named in the record; AID 1159524; 410,000 tested, 1.2% active; Potency, µM (highest dose often 57.9 µM), for inactives: top-dose signal change, negative = less light; active = well fitted falling curve with a large enough effect; inconclusive = small, poorly fitted or top-dose-only effect; inactive = no such curve, though single readings can be large or run the other way; tested in HEK293T cells; note: % is set by controls: 0 for no effect and ±100 for the full control effect; nearly all actives have a fitted effect of over 45% in size; luciferase light after 4 h
LASV entry inh = inhibitors of Lassa virus binding or cell entry. Lassa virus pseudotype entry inhibition, cell reporter; control for the full effect not named in the record. Potency, µM (series often up to 37.9 µM), without a hit: at the highest dose activity change, negative = inhibition, usual class: inhibitors. 300,000 tested, 1.2% active. AID 540256; active means well fitted inhibition curve with a large enough effect; inconclusive means small, poorly fitted or top-dose-only effect, or effect the other way; inactive means flat fitted curve, though single readings scatter; tested in HEK293 cells; note: % is set by controls: 0 for no effect and ±100 for the full control effect; nearly all actives have a fitted effect of over 50% in size; luciferase read-out
Marburg entry inh = blocks Marburg virus binding to or entry into cells. 300,000 tested, 1.8% active. Marburg virus pseudotyped entry inhibition, cell reporter; control for the full effect not named in the record; about a third of the inactives were read at about 46 µM. Potency, µM (highest dose often 37.8 µM), for the others: at the top dose activity change, negative = inhibition, usual class: inhibitors; active = well fitted inhibition curve with a large enough effect; inconclusive = small, poorly fitted or top-dose-only effect, or effect the other way; inactive = flat fitted curve, though single readings scatter; tested in HEK293 cells; about a fifth of its hits are not listed in these tables; note: % is set by controls: 0 for no effect and ±100 for the full control effect; luciferase read-out
The depositor's hits bear a star; u = inconclusive; x = no result given; & = joins results of further samples; [ ] = another dose, or the depositor's remark. Unless noted, calls come from the whole dose curve; as a rule, active means well fitted rising curve with a large enough effect; inconclusive means small, poorly fitted or top-dose-only effect; inactive means no such curve, though single readings can be large or run the other way. Potency is the fitted concentration of half-maximal effect.

canonical_smiles	Cruzain inh noDet	SARS PLpro yeast	StopGo reporter	RE007 growth inh	Cruzain Triton	LASV entry inh	NS1 function inh	Marburg entry inh
COc1cc(/C=N/NC(=O)Cc2c[nH]c3ccccc23)cc(OC)c1OC	x	0%	-14%	-8%	x	u	x	-27%
NS(=O)(=O)c1ccc(CCNC(=O)c2cc3ccccc3oc2=O)cc1	x	1%	14%	4%	x	12%	9%	9%
COC(=O)c1c(NC(=O)C(C)C)sc2c1CCN(Cc1ccccc1)C2	x	0%	-17%	-2%	x	x	-5%	x
O=C(CSc1ccccc1C(=O)O)Nc1cccc(C(=O)O)c1	-6%	-2%	-7%	7%	0.2%	11%	3%	16%
CC(=O)N1CCN(C(=O)c2ccc3c(c2)OCCO3)CC1	x	-1%	52%[activator]	-18%	x	x	9%	x
O=C(C1=C[C@H](c2coc3ccccc3c2=O)C[C@H](OCc2ccc(CO)cc2)O1)N1CCN(Cc2ccccc2)CC1	x	-1%	-23%	3%	x	x	-16%	x
O=C(COc1ccc(Cl)cc1)NNC(=O)c1cccnc1	x	1%	8%	-2%	x	3%	4%	-13%[46.1 µM]
Cc1ccccc1NC(=O)Cn1cnc2c(oc3nc4c(cc32)COC(C)(C)C4)c1=O	-8%	-16%	4%	0%	-2.9%	12%	11%	14%
Clc1nccc(NCc2ccccc2)n1	x	x	-15%	-6%	x	12%	x	26%
Cc1c(C(c2ccc(O)cc2)c2c(C)n(C)n(-c3ccccc3)c2=O)c(=O)n(-c2ccccc2)n1C	x	1%	-16%	0%	x	3%	x	26%[46.1 µM]
Cc1ccc2c(=O)cc(C(=O)N(Cc3ccc(C(C)(C)C)cc3)C3CCS(=O)(=O)C3)oc2c1 (stereo not drawn)	u	x	-24%	x	-7.4%	-23%[46.1 µM]	x	-26%[46.1 µM]
CCOc1ccc(NC(=O)CN(C)C(=O)c2ccc(OCc3ccccc3)c(OC)c2)cc1OCC	x	0%	-8%	7%	x	-4%	x	-20%
CC(NC(=O)c1ccco1)C1CCCO1 (stereo not drawn)	4%	8%	-2%	-16%	1.8%	5%	12%	5%
CC(C)COP(=O)(c1ccc(N(C)C)cc1)C(Nc1ccccc1)c1ccccc1 (stereo not drawn)	8%	-22%	-17%	2%	-10%	-29%	15%	-27%
O=C(CCc1nc2ccccc2s1)c1ccccc1	-13%	-1%	8%	-29%	-3.7%	16%	-6%	27%
O=C(CCSCc1cccc(Cl)c1)NC1CCCC1	-13%	-3%	-10%	-4%	-0.8%	1%	-4%	0%
Oc1cc(O)c2c(c1)O[C@H](c1ccc(O)c(O)c1)[C@@H](O)C2	16%&0%	1%	-23%	0%[18.4 µM]	2.3%&0.8%	-7%	-8%&2%	6%&4%&4%&4%&4%&6%
COC(=O)CSc1nnc(CNC(=O)c2ccccc2F)n1-c1ccccc1	x	-5%	7%	1%	x	-8%	3%	-1%[46.1 µM]
O=C(NCc1ccco1)/C(=C/c1cccc([N+](=O)[O-])c1)NC(=O)c1ccco1	x	4%	-24%	-9%	x	-10%	-10%	u
COc1ccc(NC(=O)c2oc3ccccc3c2NC(=O)c2cc3ccccc3o2)c(OC)c1	-4%	x	-2%	x	0.1%	15%[46.1 µM]	x	-1%[46.1 µM]
CC1CCC(C(=O)NC(C(=O)NCCCN2CCOCC2)C(C)C)CC1 (stereo not drawn)	-4%	13%	-21%	0%	-8.3%	-1%	-1%	19%
CCOC(=O)C1CCCN(CC(O)COC(c2ccccc2)c2ccccc2)C1 (stereo not drawn)	x	1%	-19%	1%	x	x	18%	-28%[46.1 µM]
CCN(CC)S(=O)(=O)c1ccc(C(=O)NNC(=O)c2cccs2)cc1	15%	10%	14%	-3%	-1.1%	2%	16%	23%
O=C(NCc1ccccc1)c1c(F)c(F)c(F)c(F)c1F	0%	9%	-22%	1%	-2.7%	22%	-1%	-13%
CCOc1ccc(C(=O)n2cc(C(=O)OC)c3ccccc32)cc1OCC	x	2%	-17%	-4%	x	13%	10%	u
Cc1nn(C)cc1C1C(C#N)=C(N)N(c2ccc(F)c([N+](=O)[O-])c2)C2=C1C(=O)CCC2 (stereo not drawn)	5%	9%	-30%	-19%	-6.3%	21%	12%	-11%
Cc1ccc(S(=O)(=O)NCCc2csc(-c3cccc(F)c3)n2)cc1	-2%	x	-3%	x	-11%	-1%[46.1 µM]	x	x
Cc1nnc2n(-c3ccccc3)c(=O)c3c4c(sc3n12)COC(C)(C)C4	-3%	u	-10%	8%	-2.0%	-3%	7%	18%
CCCCOc1ccc(NC(=O)C(=O)NCCC2=CCCCC2)cc1	10µM*	5%	-22%	-8%	2.9%	3%	0%	1%[46.1 µM]
CCOC(=O)c1ccc(CN(Cc2ccc(F)cc2)S(=O)(=O)c2ccc(F)c(C(=O)Nc3cc(Cl)ccc3OC)c2)cc1	-17%	x	-25%	x	0.4%	u	x	x
O=C(NNc1nc(-c2ccccc2)cs1)c1ccco1	-1%	-12%	33%[activator]	28%	-2.8%	u	4µM*	-28%
CCC1(C(=O)c2ccccc2)C2c3cc(Br)ccc3OC(=O)C21C(=O)N1CCOCC1 (stereo not drawn)	u	-11%	-20%	-3%	-3.2%	-17%	9%	23%
COc1cc(N)c2ncccc2c1OC	x	x	-13%	1%	x	28%[46.1 µM]	x	-2%[46.1 µM]
COc1ccc2nc(/C=N/NC(=O)[C@H](CCSC)NC(=O)OC(C)(C)C)ccc2c1	u	0%	-19%	0%	-23%	u	-3%	-17%
O=C(NCC(c1ccco1)N1CCCC1)c1ccccc1Sc1ccc(C(F)(F)F)cc1[N+](=O)[O-] (stereo not drawn)	x	2%	-17%	-11%	x	5%	x	u
COc1ccc(-c2nnc3ccc(SCC(=O)Nc4cc(C)on4)nn23)cc1OC	x	0%	9%	-10%	x	-3%	x	-2%[46.1 µM]
CC(C)CCNC(=O)c1ccc2c(c1)ncn2C1CCCCC1	-9%	-3%	29%	21%	-0.2%	3%	-16%	-2%
COc1ccc(CCN2C(=O)N(c3cccc(OC)c3)C(=O)C2CC(=O)Nc2ccccc2)cc1 (stereo not drawn)	9%	x	-8%	x	-5.2%	u	x	u
COC(=O)C1=C(C)N=c2s/c(=C/c3cccs3)c(=O)n2C1c1ccc(F)cc1 (stereo not drawn)	u	-1%	-14%	-7%	-8.9%	3%	-3%	u
Cc1cc(S(=O)(=O)N2CCOCC2)ccc1OCC(=O)Nc1ccc(F)c(Cl)c1	x	0%	-19%	-15%	x	1%	-9%	-12%[46.1 µM]
C/C(=N/NS(=O)(=O)c1ccc(C)cc1C)c1c[nH]c2ccccc12	x	3%	5%	3%	x	u	-7%	u
CCOC(=O)c1ccc(C(=O)NNC(=O)C2C3C=CC(C3)C2C(=O)O)cc1 (stereo not drawn)	x	-1%	26%	1%	x	x	9%	x
CCC(=O)N1CCc2cc(S(=O)(=O)CCC(=O)N3CCCC(C)C3)ccc21 (stereo not drawn)	x	u	-11%	2%	x	x	8%	x
CCC(=O)Nc1ccc(S(=O)(=O)Nc2nccs2)cc1	x	6%	11%	-6%	x	13%	-8%	-22%
Cc1ccc2c(C)c(C(=O)N3CCC(O)(c4ccccc4)CC3)oc2c1C	x	-9%	5%	14%	x	-26%	-74%	-20%
O=C(NCc1ccco1)C1CCCN(S(=O)(=O)c2ccc(-n3cnnn3)cc2)C1 (stereo not drawn)	u	1%	-8%	-9%	-3.1%	0%	4µM*	-23%
Cc1ccc(Cn2c(C(=O)O)c(CNCCc3cccs3)c3ccc(C)cc32)cc1	9%	x	2%	x	-2.2%	18%[46.1 µM]	x	x
Cc1ccc(Cl)cc1N1CCN(C(=O)c2ccc3c(c2)N(Cc2ccccc2)CCS3)CC1	u	x	-25%	x	-0.6%	-1%[46.1 µM]	x	0%[46.1 µM]
Cc1ccc(NC(=O)Cn2cnc3c2c(=O)n(C)c(=O)n3C)cc1C	-5%	x	-14%	x	-4.6%	16%[46.1 µM]	x	x
COc1ccc(NC(=O)CN(C)C(=O)c2cc3c(cc2Cl)N2CCCCCC2=NS3(=O)=O)cc1	x	x	12%	6%	x	3%	x	1%[46.1 µM]
CCOc1cc(-c2nnc(SCC(=O)NC3CCCC3)nc2-c2ccc(OC)c(OCC)c2)ccc1OC	-6%	x	15%	x	-0.2%	9%[46.1 µM]	x	x
COc1ccc(N/N=C/c2c(C(=O)O)ccc3ccccc23)cc1	x	4%	5%	-6%	x	x	-87%	x
Cc1ccc(CN2CCN(Cc3cccn3-c3ccccn3)CC2CCO)o1 (stereo not drawn)	x	2%	-10%	-6%	x	x	-3%	x

In another format: results already given
The line under a structure holds: Cruzain inh noDet	SARS PLpro yeast	StopGo reporter	RE007 growth inh	Cruzain Triton	LASV entry inh	NS1 function inh	Marburg entry inh
> CCC(=O)Nc1ccc(S(=O)(=O)Nc2nccs2)cc1
  x	6%	11%	-6%	x	13%	-8%	-22%
> Cc1ccc2c(C)c(C(=O)N3CCC(O)(c4ccccc4)CC3)oc2c1C
  x	-9%	5%	14%	x	-26%	-74%	-20%
> O=C(NCc1ccco1)C1CCCN(S(=O)(=O)c2ccc(-n3cnnn3)cc2)C1 (stereo not drawn)
  u	1%	-8%	-9%	-3.1%	0%	4µM*	-23%
> Cc1ccc(Cn2c(C(=O)O)c(CNCCc3cccs3)c3ccc(C)cc32)cc1
  9%	x	2%	x	-2.2%	18%[46.1 µM]	x	x
> Cc1ccc(Cl)cc1N1CCN(C(=O)c2ccc3c(c2)N(Cc2ccccc2)CCS3)CC1
  u	x	-25%	x	-0.6%	-1%[46.1 µM]	x	0%[46.1 µM]
